PD-1 reverse act – activators reversing PD-1 mediated T-cell inhibition; primary human CD4 T cells, PD-L1 beads, CellTiter-Glo 96 h; activation, % (concentration not given with the values); 29,000 tested, under 10 active;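 active = replicate mean of 50% or more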;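 also: 0% = median vehicle wells and 100% = positive control; 100 nL library stock added to about 50 µL; numbers are from one replicate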
Hedgehog inh – Sonic Hedgehog pathway inhibition; Shh-LIGHT2 Gli-luciferase reporter, 30 h; inhibition, % (no concentration beside the values); 22,000 compounds, 2.1% hits; AID 2313;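 active = replicate mean of 65% or more; inconclusive = mean lower but half the replicates past it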;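 also: pathway switched on by Shh-conditioned medium diluted 1 in 25 in low serum; 100 nL library stock added to about 40 µL; 0% = median of neutral wells and 100% = positive control level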
YB-1 expression – YB-1 expression inhibition; 30,000 compounds, 0.37% hits; delta delta Cp (YB-1 minus CDIP) (test concentration not listed); U2OS, qRT-PCR YB-1 vs CDIP delta delta Cp, 16 h; stronger effect = higher value; zero = DMSO, each unit about twofold;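 active = delta delta Cp rounded down to an integer at or above 3, about 3 SD of DMSO wells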;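 also: higher means less YB-1 transcript or more CDIP transcript relative to DMSO; stock transfer was 100 nL into about 100 µL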
MITF inh – MITF inhibition | inhibition, % (concentration not given with the values) | 37,000 compounds, 0.28% hits | TRPM1 promoter luciferase, luminescence, 24 h;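 active = most replicates at 85% or more, or half of them and the mean; inconclusive = half reach 85% but not the mean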;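 also: human melanocyte line stably carrying TRPM1 promoter luciferase reporter; 0% = vehicle wells and 100% = a positive control; the first replicate is given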
* hit, by the source's call; ? = inconclusive; · = not tested or not shown.

Every second line gives: PD-1 reverse act	Hedgehog inh	YB-1 expression	MITF inh
- C[C@@H]1CN([C@H](C)CO)C(=O)Cc2cc(NS(=O)(=O)c3ccc(F)cc3)ccc2O[C@@H]1CN(C)Cc1ccccc1
→ 0.0	11	-0.22	9
- COc1ccc(NC(=O)N(C)C[C@@H]2Oc3c(NC(=O)NC(C)C)cccc3C(=O)N([C@H](C)CO)C[C@H]2C)cc1
→ 1.1	-19	-0.39	1
- C[C@H](CO)N1C[C@H](C)[C@H](CN(C)Cc2ccccc2)Oc2c(NS(=O)(=O)c3ccc(Cl)cc3)cccc2C1=O
→ 0.5	-1	0.1	-3
- Cc1cc(=O)[nH]c(SCC(=O)Nc2ccc(Br)cc2F)n1
→ 0.4	·	·	-8
- C[C@@H]1CN([C@H](C)CO)C(=O)Cc2cc(NC(=O)CCC(F)(F)F)ccc2O[C@@H]1CN(C)Cc1ccc(Oc2ccccc2)cc1
→ -6.0	?	-0.17	37
- O=C(O)CCC(=O)Nc1cccc(-c2nc3ccccc3[nH]2)c1
→ -0.1	-8	-0.33	18
- Cc1noc(C)c1NC(=O)N(C)C[C@@H]1Oc2ccc(NC(=O)Nc3ccc(F)cc3)cc2CC(=O)N([C@H](C)CO)C[C@@H]1C
→ -0.6	-12	0.049	-10
- C[C@@H]1CCCCO[C@H](CN(C)CC2CCCCC2)[C@@H](C)CN([C@H](C)CO)C(=O)c2cc(NS(=O)(=O)c3ccc(F)cc3)ccc2O1
→ -4.0	-23	0.057	-1
- Cc1cc(C(=O)Nc2cccc3c2O[C@@H](CN(C)C(=O)Nc2c(C)noc2C)[C@H](C)CN([C@@H](C)CO)C3=O)n(C)n1
→ 0.4	-29	0.28	-6
- C[C@H]1CN([C@@H](C)CO)C(=O)c2cc(NS(C)(=O)=O)ccc2O[C@H]1CN(C)C(=O)Nc1cccc2ccccc12
→ 2.4	·	-0.13	4
- C[C@H]1CN([C@@H](C)CO)C(=O)c2cc(NC(=O)C3CCCCC3)ccc2O[C@H]1CN(C)Cc1ccc(Oc2ccccc2)cc1
→ -4.0	1	0.094	22
- C[C@@H]1CN([C@@H](C)CO)C(=O)c2cc(NS(=O)(=O)c3ccc(Cl)cc3)ccc2O[C@H]1CN(C)Cc1ccccc1
→ ·	13	0.45	1
- C[C@@H]1CN([C@H](C)CO)C(=O)c2cccc(NC(=O)C3CC3)c2O[C@@H]1CN(C)C(=O)Nc1cccc2ccccc12
→ -1.2	-3	-0.78	-7
- COc1cccc(NC(=O)CN(c2ccc(Br)c(C)c2)S(C)(=O)=O)c1
→ -0.9	·	·	0
- CC(C)(C)c1ccc(OCC(=O)Nc2ncn[nH]2)c(Br)c1
→ 0.9	·	·	-57
- O=C(NCCCO)c1cc2ccccc2oc1=O
→ 2.1	·	·	-10
- C[C@@H]1CN([C@@H](C)CO)C(=O)c2cc(NC(=O)CCC(F)(F)F)ccc2O[C@@H]1CN(C)Cc1ccc(Cl)c(Cl)c1
→ -2.4	·	-0.0044	-2
- Cc1cccc(C)c1OC(=O)CCN1C(=O)C2C3C=CC(C4CC34)C2C1=O (stereo not given)
→ 0.2	·	·	-3
- O=c1c2c3c(sc2[nH]c(=S)n1Cc1ccccc1)CCC3
→ -0.1	·	0.75	11
- CC1=C(C(=O)OCC(C)C)C(c2ccc(Cl)cc2)NC(=O)N1C (stereo not given)
→ -0.9	1	-0.27	7
- COc1cc2c(cc1O)CCC1C2CC[C@@]2(C)C1CC[C@@H]2O (stereo not given in full)
→ -8.7	91*	0.29	19
- Cc1ccc(S(=O)(=O)Nc2ccc3c(c2)CC(=O)N([C@@H](C)CO)C[C@H](C)[C@@H](CN(C)S(=O)(=O)c2cn(C)cn2)O3)cc1
→ ·	-16	0.078	-18
- COc1ccc(NC(=O)Nc2ccc3c(c2)C(=O)N([C@H](C)CO)C[C@H](C)[C@@H](CN(C)S(=O)(=O)c2ccccc2)OCCCC[C@@H](C)O3)cc1
→ ·	35	0.0073	-4
- CS/C(=N\S(=O)(=O)c1ccccc1)N1CCCC1
→ -1.1	-24	0.32	-17
- c1ccc(-c2oc3ncnc(NCCN4CCOCC4)c3c2-c2ccccc2)cc1
→ -4.3	·	·	-3
- C[C@@H]1CN([C@@H](C)CO)C(=O)c2cc(NC(=O)Nc3ccc(C(F)(F)F)cc3)ccc2O[C@H]1CN(C)S(=O)(=O)c1cccs1
→ ·	·	-0.16	-7
- Cc1ccc([N+](=O)[O-])c(OCCSc2ncccn2)c1
→ 0.4	·	·	-59
- CN1C[C@H](C(=O)N[C@]2(C)O[C@@]3(O)[C@@H]4CCCN4C(=O)[C@H](Cc4ccccc4)N3C2=O)C[C@@H]2c3cccc4[nH]cc(c34)C[C@H]21
→ ·	-14	-0.34	-2
- COc1ccccc1-n1nnnc1SCC(=O)NC1CCCC1
→ -0.4	·	·	-12
- COc1ccc(NC(=O)Nc2ccc3c(c2)C(=O)N([C@@H](C)CO)C[C@@H](C)[C@@H](CN(C)S(=O)(=O)c2ccc(OC)cc2)O3)cc1
→ -0.6	12	-0.033	1

Filtered by structure, the compounds so far with a thiophene ring, fused or not.
Every second line gives: PD-1 reverse act	Hedgehog inh	YB-1 expression	MITF inh
- O=c1c2c3c(sc2[nH]c(=S)n1Cc1ccccc1)CCC3
→ -0.1	·	0.75	11
- C[C@@H]1CN([C@@H](C)CO)C(=O)c2cc(NC(=O)Nc3ccc(C(F)(F)F)cc3)ccc2O[C@H]1CN(C)S(=O)(=O)c1cccs1
→ ·	·	-0.16	-7

Other results follow.
Every second line gives: PD-1 reverse act	Hedgehog inh	YB-1 expression	MITF inh
- C[C@@H]1CN([C@@H](C)CO)C(=O)c2cccc(NC(=O)c3nc4ccccc4s3)c2O[C@@H]1CN(C)S(=O)(=O)c1ccc(F)cc1
→ -0.7	21	-0.087	26
- C[C@@H]1CN([C@@H](C)CO)C(=O)c2cc(NC(=O)Nc3ccc4c(c3)OCO4)ccc2O[C@H]1CN(C)Cc1ccccc1
→ ·	-21	0.019	-2
- C[C@H]1CN([C@@H](C)CO)C(=O)c2cc(NC(=O)Cn3cnnn3)ccc2O[C@H]1CN(C)C(=O)Nc1ccc(C(F)(F)F)cc1
→ 1.7	-9	-0.15	-6
- C[C@@H]1CN([C@@H](C)CO)C(=O)Cc2cc(NC(=O)c3ccncc3)ccc2O[C@@H]1CN(C)C(=O)Nc1ccc2c(c1)OCO2
→ 0.8	-4	-0.15	-9
- C[C@@H]1CCCCO[C@@H](CN(C)C(=O)Nc2cccc3ccccc23)[C@@H](C)CN([C@H](C)CO)C(=O)c2cc(NC(=O)Cc3ccccc3)ccc2O1
→ 3.1	22	0.2	15
- COc1ccc(NC(=O)CSc2c(C)nn(-c3nnc(C)c(=O)[nH]3)c2C)cc1
→ 2.1	·	·	-8
- O=C(CSc1nnnn1-c1ccccc1)N1c2ccccc2CCc2ccccc21
→ 0.7	?	0.0059	-3
- O=C(CN1C(=O)c2ccccc2S1(=O)=O)Nc1ccc(Br)cc1F
→ 0.3	·	·	15
- CSc1sc(Cl)c2c1/C(=N\O)CC(C)(C)C2
→ -5.0	?	-0.098	6
- CC(C)C1Cc2c(sc3nc(SCC(=O)Nc4ccc(Cl)cc4Cl)nc(N)c23)CO1 (stereo not given)
→ -1.8	·	·	-27
- COc1ccc(NC(=O)Nc2ccc3c(c2)CC(=O)N([C@H](C)CO)C[C@@H](C)[C@H](CN(C)C(=O)NC2CCCCC2)O3)cc1
→ ·	5	-0.17	2
- C[C@H](CO)N1C[C@H](C)[C@H](CN(C)CC2CC2)Oc2c(NS(=O)(=O)c3ccc(F)cc3)cccc2C1=O
→ 1.8	3	-0.014	-4
- O=C(Nc1ccc(C(=O)OCc2cccc(C(=O)c3ccccc3)c2)cc1)c1ccccc1
→ -0.8	·	·	-12
- Cc1noc(C)c1S(=O)(=O)N(C)C[C@@H]1Oc2ccc(NC(=O)NC(C)C)cc2CC(=O)N([C@H](C)CO)C[C@H]1C
→ ·	-5	-0.22	-6
- COC(=O)c1sc2ncn(CC(=O)Nc3ccccc3OC)c(=O)c2c1C
→ 1.3	·	·	-8
- O=C(Cn1ccc([N+](=O)[O-])n1)NCC1CCCO1 (stereo not given)
→ 2.5	·	·	-23
- NC(=O)C1(N2CCCCC2)CCN(C(=O)CSc2nc3ccccc3o2)CC1
→ -0.6	·	·	-2
- CNC[C@H]1Oc2c(NC(=O)c3ccncc3)cccc2C(=O)N([C@H](C)CO)C[C@H]1C
→ 2.1	-32	-0.39	-4
- COc1ccc(NC(=O)Nc2ccc3c(c2)CC(=O)N([C@H](C)CO)C[C@@H](C)[C@@H](CN(C)C(=O)NC(C)C)O3)cc1
→ 0.8	-11	0.11	0
- C[C@@H]1CCCCO[C@@H](CN(C)C(=O)CCC(F)(F)F)[C@@H](C)CN([C@H](C)CO)C(=O)c2cc(NS(=O)(=O)c3cn(C)cn3)ccc2O1
→ 1.7	-46	0.54	-3
- C[C@@H]1CCCCO[C@@H](CN(C)C(=O)Nc2ccccc2)[C@@H](C)CN([C@H](C)CO)C(=O)c2cc(NC(=O)Nc3ccc(C(F)(F)F)cc3)ccc2O1
→ -1.3	8	-0.17	19
- C=C1C(O)C(O)C2(CC3C(C)=CCC4C(C)(C(=O)O)CCCC34C)OC2C1O (stereo not given)
→ ·	?	1.1	·
- Cc1c(C(=O)Nc2sc3c(c2C(=O)NCc2ccco2)CCCC3)oc2ccccc12
→ -4.7	·	·	3
- Cc1ccc(Cl)cc1NC(=O)CSc1nnc(-c2ccccc2)n1-c1ccccc1
→ 0.4	·	·	10
- C[C@H](CO)N1C[C@H](C)[C@H](CN(C)S(=O)(=O)c2ccccc2)Oc2ccc(NC(=O)Nc3ccc(C(F)(F)F)cc3)cc2C1=O
→ -4.0	·	-0.17	-19
- COc1ccc(Cl)cc1CN1CCC(CNC(=O)Nc2cccc(Cl)c2)CC1
→ -10.0	·	·	38
- COCCNC(=O)Nc1ccc2nc(-c3ccccn3)c(-c3ccccn3)nc2c1
→ 2.5	·	·	0
- COc1ccc(S(=O)(=O)N(C)C[C@H]2Oc3ccc(NC(=O)CCCCCC(=O)Nc4ccccc4N)cc3CC(=O)N([C@H](C)CO)C[C@H]2C)cc1
→ 1.4	·	0.39	-20
- Cc1ccc(S(=O)(=O)Nc2ccc3c(c2)CC(=O)N([C@H](C)CO)C[C@@H](C)[C@@H](CN(C)Cc2ccc(C(F)(F)F)cc2)O3)cc1
→ -1.9	14	-0.28	-1
- O=C(Cn1cc([N+](=O)[O-])cn1)Nc1ccc(F)cc1
→ 1.7	·	·	-13

A draw from above in order of SMILES length, ascending.
Every second line gives: PD-1 reverse act	Hedgehog inh	YB-1 expression	MITF inh
- Cc1noc(C)c1S(=O)(=O)N(C)C[C@@H]1Oc2ccc(NC(=O)NC(C)C)cc2CC(=O)N([C@H](C)CO)C[C@H]1C
→ ·	-5	-0.22	-6
- C[C@@H]1CN([C@@H](C)CO)C(=O)c2cc(NC(=O)CCC(F)(F)F)ccc2O[C@@H]1CN(C)Cc1ccc(Cl)c(Cl)c1
→ -2.4	·	-0.0044	-2
- COc1ccc(NC(=O)Nc2ccc3c(c2)C(=O)N([C@H](C)CO)C[C@H](C)[C@@H](CN(C)S(=O)(=O)c2ccccc2)OCCCC[C@@H](C)O3)cc1
→ ·	35	0.0073	-4

Carrying on.
Every second line gives: PD-1 reverse act	Hedgehog inh	YB-1 expression	MITF inh
- C[C@H]1CN([C@@H](C)CO)C(=O)Cc2cc(NS(=O)(=O)c3ccc(Cl)cc3)ccc2O[C@H]1CN(C)C(=O)Nc1ccccc1
→ 3.4	-30	0.21	-9
- N#Cc1ccc(NC(=O)C2CCCCC2C(=O)O)cc1 (stereo not given)
→ 3.5	·	·	3
- COc1ccc(CN(C)C[C@@H]2OCCCC[C@@H](C)Oc3ccc(NC(=O)CCC(F)(F)F)cc3C(=O)N([C@H](C)CO)C[C@@H]2C)cc1
→ -0.3	·	0.22	-11
- CC(C)NC(=O)N(C)C[C@H]1Oc2ccc(NC(=O)c3ccncc3)cc2CC(=O)N([C@H](C)CO)C[C@H]1C
→ 0.2	·	-0.34	-5
- C[C@H]1CN([C@@H](C)CO)C(=O)c2cccc(NC(=O)NC3CCCCC3)c2O[C@@H]1CN(C)S(C)(=O)=O
→ 0.2	35	0.46	7
- C[C@@H]1CN([C@H](C)CO)C(=O)c2cc(NS(=O)(=O)c3ccc(Cl)cc3)ccc2O[C@H]1CN(C)C(=O)Nc1ccc2c(c1)OCO2
→ 1.5	·	-0.39	-8
- COc1ccc(S(=O)(=O)Nc2cccc3c2O[C@H](CN(C)C(=O)NC2CCCCC2)[C@@H](C)CN([C@@H](C)CO)C3=O)cc1
→ ·	-42	-0.75	-10
- Cc1ccc(C(=O)C2C(=O)N(c3ccccc3)C(=O)N(c3ccccc3)C2=O)cc1
→ -1.0	5	0.11	-8

Quoted from the listing:
Entry of COc1ccc(S(=O)(=O)Nc2cccc3c2O[C@H](CN(C)C(=O)NC2CCCCC2)[C@@H](C)CN([C@@H](C)CO)C3=O)cc1 under YB-1 expression: -0.75
Entry of C[C@H]1CN([C@@H](C)CO)C(=O)Cc2cc(NS(=O)(=O)c3ccc(Cl)cc3)ccc2O[C@H]1CN(C)C(=O)Nc1ccccc1 under PD-1 reverse act: 3.4
Entry of C[C@H]1CN([C@@H](C)CO)C(=O)c2cccc(NC(=O)NC3CCCCC3)c2O[C@@H]1CN(C)S(C)(=O)=O under MITF inh: 7

Source: PubChem

A portion of the library; rates above refer to the full screens.
